ALR inh: human ALR oxidase inhibition via reduced H2O2 | P55789 | purified ALR, DTT oxidation, H2O2 HRP-luminol luminescence | inhibition, % (concentration not given with the values) | actives 3.8% (n = 290,000);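 active = mean and each replicate at 75% or more; inconclusive = only one of the two met; inactive = neither met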;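 also: stock transfer was 7.5 nL into about 7.5 µL; 0% = neutral wells and 100% = wells with inactivated enzyme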
Target sequence (P55789 whole entry, looked up): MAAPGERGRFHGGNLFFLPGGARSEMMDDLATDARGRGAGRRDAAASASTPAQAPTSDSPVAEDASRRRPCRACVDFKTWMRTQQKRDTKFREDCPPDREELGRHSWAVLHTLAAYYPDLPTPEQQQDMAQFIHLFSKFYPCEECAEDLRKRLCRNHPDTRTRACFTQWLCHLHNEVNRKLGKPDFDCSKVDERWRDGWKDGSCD
FGF22 binding: shifts melting point of recombinant human FGF22; AID 651658; actives 1.5% (n = 340,000); recombinant FGF22 thermal shift, SYPRO orange fluorescence; percent of sucrose octasulfate shift, DMSO zero; Q9HCT0; calls only at 9.99 µM;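 active = melting point raised past a set limit in the mean and every replicate; inconclusive = no clear call; three in four hits are not shown here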
Target sequence (Q9HCT0 whole entry, looked up): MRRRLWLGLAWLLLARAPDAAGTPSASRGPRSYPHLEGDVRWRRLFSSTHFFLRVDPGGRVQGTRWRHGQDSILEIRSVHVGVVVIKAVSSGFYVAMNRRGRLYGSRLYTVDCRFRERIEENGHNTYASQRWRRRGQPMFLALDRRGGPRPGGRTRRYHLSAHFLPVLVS
AF4-AF9 inh: blocks AF4 peptide binding to human AF9 | P42568 | AlphaScreen, biotin-AF4 peptide binding to FLAG-AF9 | AID 651704 | actives 0.47% (n = 350,000) | inhibition, % at 10 µM;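 active = every replicate reaching a set inhibition limit, whatever the replicate mean, cut at about 25% in these data; inconclusive = mean inhibition reaches that limit but some replicates miss it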;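 also: 0% = plate neutral control median and 100% = total signal loss; the record names both 10 and 1 µM as test concentration; the first replicate is given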
Vif A3G: inhibitors of Vif binding to APOBEC3G peptide, primary screen, biochemical, TR-FRET, GST-Vif 1-94, biotin-A3G peptide, dose response retest (AID 1117319); TR-FRET GST-Vif / biotin-A3G peptide binding; higher % means a stronger effect; test concentration not given here; strong numbers were not always called active; one-dose inhibition, %; IC50 in µM for titrated hits; actives 0.57% (n = 260,000);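 active = above the screen mean plus three standard deviations and confirmed in dose response; inconclusive = results disagree or hit not tested in dose response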;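 also: Vif residues 1-94 fused to GST binding biotinylated APOBEC3G peptide 110-148; 0% = full assay without inhibitor and 100% = GST in place of GST-Vif; retest series ran down from 100 µM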
Ecoli rRNA inh: selective bacterial rRNA inhibition in E. coli; E. coli WT GFP vs humanized-ribosome RFP mutants, fluorescence, 24 h; hits give low values; DMSO median 0, no signal -100; AID 720706; actives 1.6% (n = 350,000); GFP signal change (wild-type ribosome), % (concentration not given with the values);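 active = significant combined selectivity score with lowered wild-type GFP, culture density cut under 30%, mutant RFP and density less affected; inactive = any of these conditions unmet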; also: one replicate is shown; some compounds called inactive have numbers as strong as hits
HNF4A DNA FP: change in binding of human HNF4 alpha to DNA. activity change, % at 10 µM. actives 0.3% (n = 360,000). HNF4a-FITC DNA binding, fluorescence polarization, 1 h. P41235. AID 1224865; in the data active = activity change above about 30%, passing the limit was not always enough;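 also: controls were the assay level and a saturating level of protein; the project sought stronger binding though the title names inhibitors; some compounds called inactive have numbers as strong as hits; positive values seem to mean higher polarization but the record does not say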
Target sequence (P41235 whole entry, looked up): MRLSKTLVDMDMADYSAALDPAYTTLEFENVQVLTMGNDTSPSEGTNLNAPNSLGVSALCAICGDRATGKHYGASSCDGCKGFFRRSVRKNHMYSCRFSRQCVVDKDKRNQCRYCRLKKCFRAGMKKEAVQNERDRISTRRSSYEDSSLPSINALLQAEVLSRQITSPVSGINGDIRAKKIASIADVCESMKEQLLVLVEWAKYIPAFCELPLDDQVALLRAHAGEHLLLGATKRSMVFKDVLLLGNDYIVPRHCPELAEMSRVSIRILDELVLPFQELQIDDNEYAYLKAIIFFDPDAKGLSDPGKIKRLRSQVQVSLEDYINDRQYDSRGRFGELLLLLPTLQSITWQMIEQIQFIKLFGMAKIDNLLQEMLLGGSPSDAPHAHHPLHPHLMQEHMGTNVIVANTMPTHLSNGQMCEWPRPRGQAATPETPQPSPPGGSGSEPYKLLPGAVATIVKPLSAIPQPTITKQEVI
Ecoli growth: blocks Escherichia coli growth. OD600, 23 h; hits give low values. OD600 absorbance (test concentration not listed). actives 0.21% (n = 330,000). AID 1053175;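 active = OD600 absorbance below the run mean of sample wells minus 3.6 SD, in any replicate, cut at about 0.56 in these data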;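 also: stock transfer was 300 nL into about 60 µL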
Ecoli rRNA inh OD600: further read-out of Ecoli rRNA inh, marked with its call; OD600 change, %; measured here: OD600 growth;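 optical density of the mix in the first replicate; 0 = DMSO median and -100 = no signal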
Ecoli rRNA inh RFP: also measured in Ecoli rRNA inh; calls as there; RFP signal change, %; measured here: RFP humanized mutant strains;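 first replicate; 0 = DMSO median and -100 = no signal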
The depositor's hits bear a star; i = inactive; ? = inconclusive; . = no result given; + = active, no number; & = joins results of further samples.

ALR inh	FGF22 binding	AF4-AF9 inh	Vif A3G	Ecoli rRNA inh	Ecoli rRNA inh OD600	Ecoli rRNA inh RFP	HNF4A DNA FP	Ecoli growth	structure
-12.1	.	.	?	10.8	21.6	4.7	-1.3	0.663	CC1CCC/C(=C\Nc2ccc3c(c2)OCO3)C1=O (stereo not drawn)
.	i	-1.0	.	2.6	-1.5	1.7	.	.	Cc1noc(C)c1S(=O)(=O)Nc1ccc2c(c1)C(=O)N([C@H](C)CO)C[C@H](C)[C@@H](CN(C)C(=O)NC(C)C)OCCCC[C@@H](C)O2
.	i	-2.4	.	-2.4	8.0	0.7	.	.	CCCN1C[C@@H](C)[C@@H](OC)CN(C)C(=O)c2cc(NS(=O)(=O)c3ccccc3)ccc2OC[C@@H]1C
.	i	-3.2	.	.	.	.	-1.1	.	Cc1nn(CC(=O)NC2CCCCC2)c(C)c1[N+](=O)[O-]
.	i	-1.1	.	2.3	3.2	0.0	.	.	O=C(N[C@H]1CC[C@H](CC(=O)N2CCCCC2)O[C@H]1CO)c1ccccn1
-11.4	i	-0.5	.	0.4	8.6	-1.7	3.1	0.701	CCC(C)N(C(=O)c1csnn1)C(C(=O)NC1CCCC1)c1ccccc1F (stereo not drawn)
.	i	0.4	.	-11.4	2.6	-0.9	.	.	C[C@H](CO)N1C[C@H](C)[C@H](CN(C)C(=O)Nc2ccc(F)cc2)Oc2ncc(-c3ccc(C#N)cc3)cc2C1=O
-29.4	i	-4.0	.	12.8	8.0	2.6	-1.4	0.696	Cc1nc(C(C)NC(=O)c2ccc(OC3CCN(Cc4ccccn4)CC3)cc2)c(C)s1 (stereo not drawn)
-1.3	i	-1.1	?	15.0	9.2	-8.4	3.8	0.659	COc1ccccc1-c1nc(N)n[nH]1
-1.2	i	4.4	.	-25.1	-48.2	-12.1	-2.2	0.594	CN(Cc1ccccc1)C(=O)c1cccc(NC(=O)C2CCCN(C(=O)OC(C)(C)C)C2)c1 (stereo not drawn)
6.4	i	-1.1	.	0.8	-6.0	-3.0	1.2	0.705	Cc1c(O)c2ccccc2n(-c2ccccc2)c1=O
0.2	.	.	7.7%	.	.	.	-0.9	0.759	CCOC(=O)CC(=O)CSc1nc(C)nc2c1oc1ccccc12
.	i	-2.0	-2.6%	4.6	3.1	-5.1	-0.3	0.676	O=C1C(O)CCN1C1CCCCC1 (stereo not drawn)
7.1	i	-0.7	3.8%	-22.9*	7.0*	-1.1*	-0.2	0.735	O=C(Oc1cccc(OC(=O)c2ccco2)c1)c1ccco1
.	i	-1.6	-4.5%	16.3	3.8	-4.2	-1.8	0.681	CCCNC(=S)NC1CC2CCCC(C1)N2CC(C)C (stereo not drawn)
.	i	-0.6	.	0.3	-1.8	-1.5	.	.	CCCN1C[C@@H](C)[C@@H](OC)CN(C)C(=O)c2cc(NC(=O)NC3CCCCC3)ccc2OC[C@@H]1C
-5.8	i	-2.3	.	-0.3	1.2	-0.8	-1.5	0.625	O=C(CSc1ccccc1)NNC(=O)c1ccccc1O
98.5*	i	-1.3	4.5%	4.9	4.8	-7.7	-1.4	.	COc1cc(/C=N/Nc2nc(C)cc(=O)[nH]2)ccc1O
.	i	-3.0	6.2%	-2.4	-2.3	-2.8	1.2	0.717	O=C(NC1CC1)c1ccc2snnc2c1
.	i	2.4	.	-57.3	-70.1	-11.8	2.3	.	C#Cc1cccc(Nc2nc(NCc3ccccc3)nc3ccsc23)c1
.	i	1.7	.	-7.1	-15.2	-2.2	.	.	COc1ccc2c3c([nH]c2c1)[C@@H](CO)N(C(=O)NC1CCCC1)CC31CN(C(=O)Nc2cccc(F)c2)C1
13.0	.	.	-3.4%	.	.	.	4.1	0.821	Cn1c(=O)n(CC(=O)OCc2ccccc2)c(=O)c2c1nc1n2CCCN1C1CCCCC1
15.3	i	-0.6	-3.5%	11.9	13.7	2.6	2.1	0.681	CCN(CC)c1ccc(C=NCCc2ccc(S(N)(=O)=O)cc2)cc1
-2.5	i	23.0	-2.2%	-7.5	-29.8	7.5	3.1	0.679	COc1cc2ccccc2cc1C(=O)N(CCN(C)C)c1nc2ccc(Br)cc2s1
-8.4	.	0.6	0.8%	7.5	13.5	3.4	5.2	.	O=C(N/N=C/c1ccc(OC(F)F)cc1)C1=COCCO1
-2.0	i	0.0	?	10.8	4.4	-1.2	2.9	0.671	CC(Oc1ccccc1)C(=O)NC1=NCCS1 (stereo not drawn)
.	i	13.4	.	0.8	9.5	6.7	.	.	COc1ccc2c3c(n(C)c2c1)[C@@H](CO)N(C(=O)CC1CC1)CC31CN(Cc2ccccc2)C1
11.8	i	-4.3	.	8.5	4.9	1.1	4.1	0.635	O=C(NC1CCCCCCC1)c1c(Cl)cccc1Cl
-0.7	.	.	3.9%	.	.	.	-3.7	0.728	Nn1c(SCC(=O)N2CCOCC2)nnc1-c1ccc(Cl)cc1Cl
-7.7	i	-0.9	24.8%	16.1	7.7	-1.2	-2.9	0.681	CCCCN(c1ccccc1)S(=O)(=O)N(C)C
.	.	0.4	-3.9%	13.7	7.5	-1.3	-3.1	0.735	COc1ccc(N/C=C/C(=O)C(C)(C)C)cc1
-1.0	.	.	.	.	.	.	5.7	0.665	CCC(=O)Nc1ccc(Nc2nc(C)c([N+](=O)[O-])c(Nc3ccc(NC(=O)CC)cc3)n2)cc1
.	i	2.1	.	2.5	5.4	-3.0	.	.	CO[C@@H](CN(C)C(=O)c1cnccn1)[C@@H](C)CN([C@@H](C)CO)S(=O)(=O)c1ccc(F)cc1
-20.1	i	7.1	.	-0.7	1.4	2.0	-1.6	0.7	Cc1nn(CC(=O)NCCN2CCCCC2C)c(=O)c2cc(-c3ccccc3)nn12 (stereo not drawn)
-2.4	.	.	-2.9%	.	.	.	-2.6	0.624	CC(CN(C)Cc1ccccc1)OC(=O)c1cccc(F)c1 (stereo not drawn)
97.6*	i	9.7	-12.5%	-12.4	2.5	-0.5	-2.5	0.686	CNC(=S)NNc1ccccc1[N+](=O)[O-]
.	i	8.0	.	-30.0	-50.1	-5.1	1.0	0.718	O=C(/C(C=Nc1cc2c(oc1=O)CCCC2=O)=C(\O)c1ccccc1)c1ccccc1
.	i	2.1	.	-2.9	-0.5	-8.1	-1.9	.	COc1ccc(-c2nc3c(Cl)cc(C(F)(F)F)cn3c2Cc2ccccc2C(F)(F)F)cc1OC
-1.5	i	-2.8	5.6%	-2.8	-5.4	-0.3	0.6	0.648	COc1ccc(Cc2nnc(SCC(=O)Nc3ccc(C)cc3C)[nH]c2=O)cc1
-1.6	.	.	-3.2%	6.5	9.2	-2.1	2.0	0.674	CCOC(=O)C1CCN(CCC(=O)Nc2cccc(Cl)c2C)CC1
-1.6	i	-18.3	4.7%	6.6	9.2	-0.4	1.5	0.697	COc1cc(C(=O)O)ccc1Cl
.	i	-5.2&-9.0	-4.0%	4.5&-0.4	3.7&10.0	5.7&0.8	-2.6	.	C[C@@H]1CN([C@H](C)CO)S(=O)(=O)c2ccc(C#Cc3ccccc3F)cc2O[C@@H]1CN(C)C(=O)Cc1ccccc1
-6.4	i	-2.0	.	-25.8	-27.3	-3.2	0.1	0.673	Cc1ccc(C)c(OCCn2nnc3ccccc32)c1
-0.2	i	-10.0	.	18.1	23.5	-1.3	0.3	.	Cc1c(O)ccc(/C=N/Nc2ncccc2[N+](=O)[O-])c1O
-13.7	.	.	.	.	.	.	-2.5	0.753	CC(Oc1ccc(Cl)cc1Cl)C(=O)Nc1ncccn1 (stereo not drawn)

5 entries from above, as a markdown table.
| smiles | ALR inh | FGF22 binding | AF4-AF9 inh | Vif A3G | Ecoli rRNA inh | Ecoli rRNA inh OD600 | Ecoli rRNA inh RFP | HNF4A DNA FP | Ecoli growth |
| --- | --- | --- | --- | --- | --- | --- | --- | --- | --- |
| COc1ccc(-c2nc3c(Cl)cc(C(F)(F)F)cn3c2Cc2ccccc2C(F)(F)F)cc1OC | . | i | 2.1 | . | -2.9 | -0.5 | -8.1 | -1.9 | . |
| CCC(=O)Nc1ccc(Nc2nc(C)c([N+](=O)[O-])c(Nc3ccc(NC(=O)CC)cc3)n2)cc1 | -1.0 | . | . | . | . | . | . | 5.7 | 0.665 |
| CCOC(=O)C1CCN(CCC(=O)Nc2cccc(Cl)c2C)CC1 | -1.6 | . | . | -3.2% | 6.5 | 9.2 | -2.1 | 2.0 | 0.674 |
| COc1ccc(Cc2nnc(SCC(=O)Nc3ccc(C)cc3C)[nH]c2=O)cc1 | -1.5 | i | -2.8 | 5.6% | -2.8 | -5.4 | -0.3 | 0.6 | 0.648 |
| CC(Oc1ccc(Cl)cc1Cl)C(=O)Nc1ncccn1 (stereo not drawn) | -13.7 | . | . | . | . | . | . | -2.5 | 0.753 |

The list continues.
ALR inh	FGF22 binding	AF4-AF9 inh	Vif A3G	Ecoli rRNA inh	Ecoli rRNA inh OD600	Ecoli rRNA inh RFP	HNF4A DNA FP	Ecoli growth	structure
-12.9	i	-0.5	3.0%	-3.2	2.0	3.0	1.4	.	C/C(=N/NC(=O)c1nnn(-c2nonc2N)c1COc1ccccc1)c1ccc(O)cc1
30.0	i	33.8*	-6.8%	14.9	25.8	12.2	4.0	0.715	CN1CCC(CN)(N2CCN(c3ccccc3)CC2)CC1
.	i	-2.3	.	2.9	-0.8	-0.6	.	.	C[C@H](CO)N1C[C@H](C)[C@@H](CN(C)C(=O)Nc2ccc(F)cc2)Oc2c(NC(=O)c3nc4ccccc4s3)cccc2C1=O
-7.3	.	.	-5.1%	.	.	.	-3.0	0.768	COc1cc(C(=O)OCc2cc3ccccc3[nH]c2=O)cc(OC)c1OC
.	i	2.7	.	0.0	-2.9	0.2	.	.	C[C@@H]1CN([C@H](C)CO)C(=O)Cc2cc(NC(=O)Cc3cn(C)c4ccccc34)ccc2O[C@H]1CN(C)Cc1ccc2c(c1)OCO2
.	i	-2.1	-3.5%	9.8	8.1	0.5	-1.3	0.716	COc1ccc(NC(=O)NC[C@@H]2CC[C@@H](Cc3ccc(-c4ccccc4)cc3)O2)cc1
.	i	2.5	.	-0.1	-15.9	1.8	.	.	C[C@@H]1CN([C@H](C)CO)S(=O)(=O)c2ccc(C#CC3(O)CCCC3)cc2O[C@H]1CN(C)C(=O)Nc1cccc(F)c1
-1.3	.	.	?	.	.	.	2.6	0.719	Cc1cc(NC(=O)CSc2nnc(-c3ccccc3)n2Cc2ccco2)no1
-6.8	i	8.0	.	19.8	20.4	5.9	-1.6	0.694	CN1CCCN(C(=O)c2cccc(Cl)c2)CC1
-6.2	+	2.4	-6.0%	-45.2	-53.9	-7.2	-0.1	0.645	O=S1(=O)N=C(N(Cc2cccs2)c2ccc(O)cc2)c2ccccc21
.	i	2.3	.	3.8	5.6	-1.5	6.0	0.679	CCOc1cc(C(=O)Nc2cc(C(=O)OC)ccc2C)ccc1OCC(=O)N1CCOCC1
.	.	.	-3.9%	.	.	.	1.0	0.659	C=CCOc1ccc(C2NC(=S)NC(C)=C2C(=O)c2ccccc2)cc1OC (stereo not drawn)
-4.8	i	-1.1	.	1.6	0.9	0.6	0.1	0.649	Cc1nn2c(=O)cc(CSc3ccccc3NC(=O)c3ccccc3)nc2s1
-2.5	i	-3.6	.	3.0	5.7	2.4	-0.7	0.703	COCCCn1c(=O)c2sccc2n2c(CCCC(=O)NCc3cccc(OC)c3)nnc12
5.5	.	-1.3	-4.0%	21.6	11.9	0.6	-0.6	0.724	O=C(O)C1CCCN(S(=O)(=O)c2ccc(Br)s2)C1 (stereo not drawn)
.	i	-0.7	.	-3.4	-5.2	-1.2	.	.	Cc1noc(C)c1S(=O)(=O)N(C)C[C@H]1Oc2ccc(NC(=O)CCC(F)(F)F)cc2CC(=O)N([C@@H](C)CO)C[C@H]1C

From PubChem

Not all compounds are listed (hit frequency here may not be typical).
